NS1 function inh – inhibitors of influenza NS1 protein function; Potency, µM (titrated, usually from 46.1 µM), without a hit: top-dose activity, positive = more growth; S. cerevisiae slowed by influenza A NS1, growth recovery by OD600; 270,000 compounds, 0.4% hits; note: actives are rising curves; nearly all actives have a fitted effect of over 50% in size
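Recovery from NS1-induced slow growth read by OD600 in budding yeast switched to galactose assay medium (pH 6.0, -URA) at 1:100 dilution. Compound 23 nl per well; the matching strain lacking NS1 serves as control.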
Cruzain Triton – inhibitors of Trypanosoma cruzi cruzain with detergent; P25779; purified cruzain, Z-FR-AMC fluorescence, 0.01% Triton; Potency, µM, without a hit: max response, negative = inhibition, most hits filed as inhibitors; 200,000 compounds, 0.43% hits; AID 1478; active = well fitted curve in the direction sought with a large enough effect; inconclusive = small, poorly fitted or top-dose-only effect, or another doubt; inactive = no such curve, though single readings can be large; an effect the other way counts as inactive or inconclusive;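 note: plate controls were neutral wells for no effect and buffer without enzyme for full effect; nearly all actives have a fitted effect of over 40% in size; top concentration of the series not given in the record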
Target sequence (P25779 123-467 limits assumed): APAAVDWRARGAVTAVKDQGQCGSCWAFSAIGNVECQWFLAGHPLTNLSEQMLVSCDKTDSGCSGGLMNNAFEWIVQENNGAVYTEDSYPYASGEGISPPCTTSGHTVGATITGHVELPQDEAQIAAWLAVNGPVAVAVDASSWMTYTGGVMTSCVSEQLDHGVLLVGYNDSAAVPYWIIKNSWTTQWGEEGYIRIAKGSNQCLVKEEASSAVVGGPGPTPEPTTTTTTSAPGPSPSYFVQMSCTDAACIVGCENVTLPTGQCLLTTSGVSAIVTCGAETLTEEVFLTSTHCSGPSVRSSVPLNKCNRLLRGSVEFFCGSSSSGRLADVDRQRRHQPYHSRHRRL
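Compounds were screened in titration against cruzain (1.5 nM) with 0.01% Triton X-100 to counter colloidal aggregation. Activity was the AMC fluorescence increase over 60 s after adding 2 uM Z-FR-AMC at pH 5.5.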
SARS PLpro yeast – blocks SARS-CoV papain-like protease in a yeast assay; Potency, µM (doses to about 32.9 µM), without a hit: at the highest dose activity, positive = growth rescue; S. cerevisiae expressing SARS-CoV PLpro, growth rescue; control for the full effect not named in the record; AID 485353; 330,000 compounds, 0.19% hits; note: 0% is about no effect; nearly all actives have a fitted effect of over 55% in size; growth read by luminescence after 48 h
Lassa entry inh – Lassa virus entry inhibition; Lassa virus pseudotype entry inhibition, cell reporter; control for the full effect not named in the record; 300,000 compounds, 1.2% hits; AID 540256; Potency, µM (series often up to 37.9 µM), for the others: at the top dose activity change, negative = inhibition, usual class: inhibitors; active means well fitted inhibition curve with a large enough effect; inconclusive means small, poorly fitted or top-dose-only effect, or effect the other way; inactive means flat fitted curve, though single readings scatter; tested in HEK293 cells; note: % is set by controls: 0 for no effect and ±100 for the full control effect; nearly all actives have a fitted effect of over 50% in size; luciferase read-out
RE007 growth inh – less growth of the S. pombe RE007 Vpr strain; S. pombe RE007 Vpr strain, BacTiter-Glo ATP luminescence, 24 h; control for the full effect not named in the record; Potency, µM (highest dose often 92.2 µM), without a hit: at the highest dose activity change, negative = less growth; 360,000 compounds, 0.21% hits; active = well fitted falling curve with a large enough effect; inconclusive = small, poorly fitted or top-dose-only effect; inactive = no such curve, though single readings can be large or run the other way;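 note: % is set by controls: 0 for no effect and ±100 for the full control effect; nearly all actives have a fitted effect of over 50% in size; the assay follows cell death caused by Vpr and the record does not say whether a fall means rescue or toxicity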
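Fission yeast RE007 carrying one integrated HIV-1 vpr copy, seeded at OD 0.01 in PMG+AL medium with 23 nL pinned compound. Grown 24 h at 30 degrees; viability read by BacTiter-Glo luminescence after 5 min.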
Cruzain noTriton – cruzain (T. cruzi) inhibition without detergent | purified cruzain, Z-FR-AMC fluorescence, no detergent | Potency, µM, without a hit: max response, negative = inhibition, most hits filed as inhibitors | 200,000 compounds, 2.3% hits | AID 1476; active = well fitted curve in the direction sought with a large enough effect; inconclusive = small, poorly fitted or top-dose-only effect, or another doubt; inactive = no such curve, though single readings can be large; an effect the other way counts as inactive or inconclusive;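 note: plate controls were enzyme without inhibitor for no effect and buffer without enzyme for full effect; nearly all actives have a fitted effect of over 40% in size; top concentration of the series not given in the record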
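Detergent-free condition (0.00005% Triton X-100) in acetate buffer pH 5.5 with DTT. 1.5 nM enzyme and compound were pre-mixed 15 min, then 2 uM Z-FR-AMC substrate added; reaction progress from fluorescence change between first and third reads (60 s).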
2A StopGo – lowers the luciferase signal of an FMDV 2A StopGo reporter; human cells with a luciferase reporter of 2A StopGo recoding; control for the full effect not named in the record; Potency, µM (series often up to 57.9 µM), without a hit: at the highest dose signal change, negative = less light; 410,000 compounds, 1.2% hits; AID 1159524; active = well fitted falling curve with a large enough effect; inconclusive = small, poorly fitted or top-dose-only effect; inactive = no such curve, though single readings can be large or run the other way; tested in HEK293T cells; note: % is set by controls: 0 for no effect and ±100 for the full control effect; nearly all actives have a fitted effect of over 45% in size; luciferase light after 4 h
MARV entry inh – blocks Marburg virus binding to or entry into cells; 300,000 compounds, 1.8% hits; Marburg virus pseudotyped entry inhibition, cell reporter; control for the full effect not named in the record; about a third of the inactives were read at about 46 µM; Potency, µM (top dose mostly 37.8 µM), for the others: at the top dose activity change, negative = inhibition, hits mostly inhibitors; active = well fitted inhibition curve with a large enough effect; inconclusive = small, poorly fitted or top-dose-only effect, or effect the other way; inactive = flat fitted curve, though single readings scatter; tested in HEK293 cells; about a fifth of its hits are not listed in these tables; note: % is set by controls: 0 for no effect and ±100 for the full control effect; luciferase read-out
* hit, by the source's call; ? = inconclusive; . = no result given; & = joins results of further samples; [ ] = another dose, or the depositor's remark. Unless noted, calls come from the whole dose curve; as a rule, active means well fitted rising curve with a large enough effect; inconclusive means small, poorly fitted or top-dose-only effect; inactive means no such curve, though single readings can be large or run the other way. Potency is the fitted concentration of half-maximal effect.

mol	MARV entry inh	Lassa entry inh	2A StopGo	Cruzain Triton	RE007 growth inh	NS1 function inh	Cruzain noTriton	SARS PLpro yeast
CCCOc1ccc(/C(O)=C2/C(=O)C(=O)N(CCCn3ccnc3)C2c2ccc(C)o2)cc1 (stereo not given)	1%	-2%	-6%	.	-9%	6%	.	4%
COc1cnc(-c2ccccn2)nc1Oc1ccccc1	?	6%	-13%	.	-9%	.	.	15%
COc1ccc(-c2nc(CCNC(=O)Cc3ccc(F)cc3)cs2)cc1	.	21%[46.1 µM]	-16%	-3.3%	.	.	-3%	.
O=C(Nc1cc(Cl)ccc1-n1cncn1)c1cc(S(=O)(=O)N2CCOCC2)ccc1F	.	.	-18%	.	-7%	-4%	.	4%
O=C(Nc1ccccc1)c1nc2ccccc2s1	?	11µM*	-1%	-7.0%	?	3%	-5%	-8%
COc1cc(/C=C/C(=O)NCCn2c(C)cc3ccccc32)cc(OC)c1OC	-22%	2%	?	-3.4%	-8%	30%	?	12%
CN(C(=O)Cn1c(=O)n(Cc2ccc(C(=O)NCc3ccc4c(c3)OCO4)cc2)c(=O)c2ccccc21)c1ccccc1	4%[46.1 µM]	-18%[46.1 µM]	-1%	-4.9%	.	.	-29%	.
COc1cc(OC)cc(C2=NCCN2)c1	-13%[46.1 µM]	-16%[46.1 µM]	20%	.	0%	-1%	.	0%
Cc1ccc(-c2nn(CC(=O)NCc3ccco3)c(=O)c3ccccc23)cc1	-19%	6%	-10%	4.0%	-8%	12%	0%	8%
CCc1nnc(NC(=O)Cc2sc(C)nc2-c2ccc(C)cc2)s1	9%[46.1 µM]	.	1%	.	1%	.	.	-3%
COc1ccc(NS(=O)(=O)c2ccc(N3CCOCC3)c(NC(=O)c3ccccc3Br)c2)cc1	2.5µM*	?	42%[activator]	.	-16%	2%	.	0%
NC(=O)c1ccc[n+](CC(=O)NCc2ccc(Cl)cc2)c1	?	27%	7%	.	0%	5%	.	-1%
COc1ccc(-c2nnc(SCc3ccccn3)n2C)cc1	24%	29%	35%[activator]	0.4%	6%	-4%	-2%	-8%
CC1(C)C2CCC1(C)C(OC(=O)C[n+]1ccccc1N)C2 (stereo not given)	.	.	16%	.	8%	1%	.	1%
Cc1ccc(C(=O)N/C(=C\c2cccs2)C(=O)NCCCN2CCOCC2)cc1	?	1%	1%	.	-8%	1%	.	10%
Cc1cc2c(cc1S(=O)(=O)NCc1ccccc1)OCC(=O)N2	.	8%[46.1 µM]	7%&65%	-13%	7%	-8%	9%	4%
S=C(NC1CCCCC1)NC1CC2C=CC1C2 (stereo not given)	-7%[46.1 µM]	?	11%	.	7%	-36%	.	13%
Cc1ccc2c(COC(=O)C3=COCCO3)cc(=O)oc2c1	?	?	7%	3.4%	2%	-4%	-6%	-4%
COc1ccc(CNc2nc3c(c(=O)[nH]c(=O)n3C)n2Cc2ccccc2C)cc1	.	.	-8%	-6.3%	-4%	2%	5%	4%
CCc1nc(SCC(=O)NC2CCCC2)c2c(=O)n(C)c(=O)n(C)c2n1	15%	-4%	0%	.	-18%	-2%	.	-5%
CC(Oc1ccc(Cl)cc1Cl)C(=O)NC(=S)N1CCc2ccccc21 (stereo not given)	15%	16%	-22%	-6.0%	-3%	-2%	-8%	-26%
Cc1c(C(c2cccs2)c2c(C)n(C)n(-c3ccccc3)c2=O)c(=O)n(-c2ccccc2)n1C	-2%	2%	-14%	.	5%	1%	.	1%
Cc1nnc(SCc2cccc([N+](=O)[O-])c2)[nH]c1=O	21%[46.1 µM]	-4%[46.1 µM]	-8%	.	-20%	.	.	1%
Cc1ccc2c(cnn2C(=O)CCCC(=O)NCc2ccc(Cl)cc2)c1	.	.	?	.	-12%	-6%	.	-5%
CC(C)Cn1c(SCC(=O)Nc2cc(Cl)c(Cl)cc2Cl)nc(O)cc1=O	?	14%[46.1 µM]	-28%	.	-7%	.	.	-8%
CCc1ccc(NC(=O)C(C)OC(=O)CCC(=O)c2cccs2)cc1 (stereo not given)	-2%	18%	-2%	-4.7%	-10%	-26%	-3%	2%
CC(=O)Oc1ccc2ccc3ccc(C(C)=O)cc3c2c1	30%[46.1 µM]	20%[46.1 µM]	6%	.	0%	.	.	.
COc1ccc(C(=O)Nc2nc(C)cs2)cc1S(=O)(=O)N1CCCC1	0%[46.1 µM]	24%	13%	.	35%	-4%	.	1%
CCOC(=O)c1sc(Nc2ccc(F)cc2)nc1C	?	-6%[46.1 µM]	14%	.	-7%	.	.	1%
CC(=O)c1ccc(OCCCC(=O)Nc2cc(S(=O)(=O)N3CCCCC3)ccc2C)cc1	8%[46.1 µM]	2%	-19%	.	-1%	.	.	-1%
CCCNC(=O)CSc1nccn1Cc1ccc(OC)cc1	-20%[46.1 µM]	.	3%	.	-16%	.	.	-4%
Cc1ccc(C)c(NC(=O)CN(C)C(=O)CC2OC(=O)c3ccccc32)c1 (stereo not given)	-2%	-2%	-6%	.	-9%	.	.	1%
O=C(O)c1cc2nc3c(c(C(F)(F)F)n2n1)CCc1ccccc1-3	-4%	0%	-10%	-0.2%	6%	-1%	3%	-2%
Cc1cc(-c2ccccc2)nc(-c2ccccc2)c1C	-1%[46.1 µM]	-10%	-21%	.	3%	-43%	.	-5%
COc1ccc(-n2c(C)c(C(C)=O)c(C(C)=O)c2C)cc1	-17%	-16%	?	-2.3%	-15%	1%	0%	8%
COC(=O)CNC(=O)c1sc2ncn(CC(=O)Nc3ccc(C)c(Cl)c3)c(=O)c2c1C	-10%	-6%	-5%	.	0%	.	.	-1%
O=C(N/N=C/c1ccsc1)c1cc(-c2ccncc2)nc2ccccc12	?	?	?	-4.8%	.	18%	-15%	-11%
CCCCC(=O)c1c(C)cc(C)[nH]c1=O	3%&3%	26%	5%	-2.5%	5%	-8%	?	0%
COc1ccc(OC)c(N(CC(=O)Nc2cccnc2)S(C)(=O)=O)c1	13%	14%	.	-2.8%	5%	4%	-1%	11%
O=C(c1ccco1)N1CCN(Cc2ccccc2Br)CC1	.	.	48%[activator]	.	1%	2%	.	-4%
N#CC(C#N)=C(Nc1ccccc1)c1ccccc1	17%[46.1 µM]	-17%	-30%	.	10%	.	.	1%
CCCCNc1sc(S(=O)(=O)CC)nc1S(=O)(=O)c1ccc(C)cc1	1%[46.1 µM]	-21%[46.1 µM]	14%	-6.7%	.	.	10%	.
O=S(=O)(c1ccc(NC(=S)Nc2ccc(OC(F)F)cc2)cc1)N1CCOCC1	6%	2%	35%[activator]	-6.4%	0%	-12%	9%	-14%
O=C(CSc1nc2ccccc2o1)c1cc2ccccc2oc1=O	?	4%	-4%	-10%	-28%	-7%	?	-37%
CCOc1ccc(CCNCc2c(C(=O)O)n(Cc3ccc(C)cc3)c3cc(OC)ccc23)cc1	.	?	-25%	-11%	.	.	12%	.
Cc1ccc(N(NC(=O)C(C)(C)O)C(=O)c2ccccc2)cc1C	-28%	-6%	-2%	6.0%	14%	-13%	10%	1%
COc1ccc(C2/C=C\CN(S(=O)(=O)c3ccc(-c4ccccc4)cc3)CC(=O)N2Cc2ccc(F)cc2)cc1 (stereo not given)	.	.	-15%	.	1%	7%	.	-5%
O=C(Nc1ccnn1C1CCN(Cc2cccc(OCCO)c2)CC1)C1CC1	?	5%	-13%	.	-11%	0%	.	6%
COc1ccc(C(=O)COC(=O)CNC(=O)c2ccccc2)cc1F	-8%	4%	-4%	.	-2%	.	.	-6%
Cc1ccc(OCc2nnc(SCC(=O)N3CCOCC3)n2C)cc1	9%	3%	8%	0.2%	-5%	-3%	-9%	0%

New compounds follow
mol	MARV entry inh	Lassa entry inh	2A StopGo	Cruzain Triton	RE007 growth inh	NS1 function inh	Cruzain noTriton	SARS PLpro yeast
CCOc1cc(C(=O)NC(=S)Nc2cccnc2)cc(OCC)c1OCC	?	-23%	-5%	-4.4%	-3%	4%	17%	11%
COC(=O)c1ccc(Nc2c([N+](=O)[O-])c(=O)oc3ccccc23)cc1	?	?	-4%	.	-2%	3%	.	0%
Cc1ccc2c(c1)=C(c1ccccc1)N(O)CC(=O)N=2	18%	23%	-8%	.	14%	3%	.	-1%
Cc1oc(-c2ccccc2)cc1C(=O)Nc1cccc(/C=C\C(=O)O)c1	?	2%[46.1 µM]	1%	.	-15%	.	.	0%
CCCc1nnc(NC(=O)CCC(=O)N2CCN(c3nc(C)cc(C)n3)CC2)s1	4%[46.1 µM]	6%[46.1 µM]	18%	.	9%	0%	.	-1%
Cc1onc(-c2c(F)cccc2Cl)c1C(=O)NC1CCCCCC1	?	?	4%	.	-4%	-2%	.	0%
CC1c2cc3c(cc2CCN1CC(=O)Nc1ccccc1)OCCCO3 (stereo not given)	.	.	?	.	3%	-2%	.	7%
O=C(OCc1ccc(COC(=O)c2cccnc2Cl)cc1)c1cccnc1Cl	?	2%	?	.	-13%	2%	.	-1%
O=C(CSc1ncc(C(F)(F)F)cc1Cl)N1CCN(S(=O)(=O)c2ccccc2)CC1	-9%&-9%	-26%	0%	-7.7%	0%	-3%	6%	5%

Of the compounds above, two have bromine:
mol	MARV entry inh	Lassa entry inh	2A StopGo	Cruzain Triton	RE007 growth inh	NS1 function inh	Cruzain noTriton	SARS PLpro yeast
COc1ccc(NS(=O)(=O)c2ccc(N3CCOCC3)c(NC(=O)c3ccccc3Br)c2)cc1	2.5µM*	?	42%[activator]	.	-16%	2%	.	0%
O=C(c1ccco1)N1CCN(Cc2ccccc2Br)CC1	.	.	48%[activator]	.	1%	2%	.	-4%

Assay outcomes: PubChem, National Center for Advancing Translational Sciences (NCATS)
